Source: PubChem BioAssay
Vaccinia mCherry: inhibitors of vaccinia virus infection (mCherry reporter signal); Vaccinia virus mCherry reporter infection, fluorescence; about a quarter of the inactives have no number; Potency, µM (titrated, usually from 36.5 µM), for inactives: at the top dose activity change, negative = inhibition, usual class: inhibitors; 310,000 compounds, 0.63% hits; AID 720579; active = well fitted inhibition curve with a large enough effect; inconclusive = small, poorly fitted or top-dose-only effect; inactive = no such curve, though single readings can be large or run the other way; tested in A549 cells; also: nearly all actives have a fitted effect of over 35% in size; inactives centre near -10
Vaccinia Venus: inhibitors of vaccinia virus (Venus reporter); 330,000 compounds, 0.46% hits; Potency, µM (series often up to 36.5 µM), without a hit: at the top dose activity change, negative = inhibition, most hits filed as inhibitors; AID 720580; Vaccinia virus Venus reporter expression, fluorescence; active means well fitted inhibition curve with a large enough effect; inconclusive means small, poorly fitted or top-dose-only effect; inactive means no such curve, though single readings can be large or run the other way; tested in A549 cells; also: nearly all actives have a fitted effect of over 30% in size; inactives centre near -10
* hit, by the source's call; i = inactive; ? = inconclusive; . = no result given; [ ] = remark or other dose. % is scaled to controls: 0 for no effect and ±100 for the full control effect; potency is read from the fitted curve at half-maximal effect.

| SMILES | Vaccinia Venus | Vaccinia mCherry |
| --- | --- | --- |
| O=C(Nc1cnn(Cc2c(Cl)cccc2Cl)c1)c1ccc([N+](=O)[O-])cc1 | -24% | -22% |
| Cc1cccc(CC(=O)NCCS(=O)(=O)N2CCN(c3cccc(Cl)c3)CC2)c1 | -10% | -24% |
| CN1CCN(C(=S)NC(=O)c2cccc(S(=O)(=O)N(C)C)c2)CC1 | -5% | -24% |
| COc1cc2c(cc1NC(=O)CN1CCN(S(=O)(=O)c3ccc(C)cc3)CC1)oc1ccccc12 | -13% | i |
| COc1ccc2nc(SCc3cnc(C)nc3N)[nH]c2c1 | -12% | -3% |
| O=C(CN1C(=O)C2C3C=CC(C3)C2C1=O)Nc1nc(-c2ccccn2)cs1 (configuration not stated) | -9% | -22% |
| Cc1ccc(NC(=S)N2CCCCC2CO)cc1C (configuration not stated) | -16% | -6% |
| C[C@@H]1CN([C@H](C)CO)C(=O)c2cc(Br)cnc2O[C@H]1CN(C)C(=O)Cc1ccncc1 | 1.3µM* | ? |
| CC(C)NS(=O)(=O)c1ccc(OCC(=O)N2CCc3ccccc3C2)cc1 | 0% | -27% |
| Cc1ccc(Cn2cc(/C=C/C(=O)O)c(-c3ccccc3)n2)cc1 | 5% | . |
| Cc1ccc(NC(=S)NCc2ccccc2)cc1[N+](=O)[O-] | -23% | ? |
| O=C1c2ccccc2C(=O)N1OCc1cccc(Cl)c1 | -25% | . |
| O=C(Nc1nc2ccc(SC(F)F)cc2s1)c1ccc(NS(=O)(=O)c2ccc(F)c(F)c2)cc1 | ? | -41% |
| CCC(C)NC(=O)C1c2ccccc2C(=O)N1Cc1ccc(F)cc1 (configuration not stated) | 1% | 0% |
| CCOC(=O)CN1CC23C=CC(O2)C(C(=O)NCc2ccccc2OC)C3C1=O (configuration not stated) | -1% | 3% |
| O=C1C(=Cc2cn(-c3ccccc3)nc2-c2ccc(OCc3ccccc3)cc2)SC(=S)N1CCS(=O)(=O)O | 4% | -3% |
| CC1CCCCN1CC(=O)N1CCCc2c1c(=O)oc1ccc(OCc3ccccc3)cc21 (configuration not stated) | -13% | -19% |
| Cn1nnc2cc(NC(=O)Nc3ccccc3F)ccc21 | -10% | -4% |
| Cn1nnnc1SCC1=C(C(=O)O)N2C(=O)C(NC(=O)C(O)c3ccccc3)C2SC1 (configuration not stated) | -14% | -17% |
| C#CCn1c(/C=C/c2ccc(Cl)cc2)nc2ccccc21 | -10% | -18% |

A second format for some results above.
Each structure is followed by: Vaccinia Venus, Vaccinia mCherry
Cc1ccc(NC(=S)NCc2ccccc2)cc1[N+](=O)[O-]
  -23%, ?
O=C1c2ccccc2C(=O)N1OCc1cccc(Cl)c1
  -25%, .
O=C(Nc1nc2ccc(SC(F)F)cc2s1)c1ccc(NS(=O)(=O)c2ccc(F)c(F)c2)cc1
  ?, -41%

Going on with the list:
| SMILES | Vaccinia Venus | Vaccinia mCherry |
| --- | --- | --- |
| CCN(CC(=O)Nc1c(F)cccc1F)C(=O)c1cc([N+](=O)[O-])ccc1N1CCCCC1 | 2% | -15% |
| CC1CCCCN1CC(O)c1c[nH]c2ccccc12 (configuration not stated) | -1% | -6% |
| Cc1ccc2nc(-c3ccc(Cl)cc3)c(Cc3cccc(Cl)c3)n2c1 | 2% | 28% |
| COc1ccc(C(=O)N(Cc2nc(-c3ccc(C)cc3)no2)C2CCCCC2)cc1OC | -23% | -23% |
| Cc1nc2ccc(S(=O)(=O)CCC(=O)Nc3ccc(C(C)C)cc3)cc2s1 | -9% | -8% |
| CCOc1ccc(-c2cc(CCCC(=O)N3CCN(c4ccc(OC)cc4)CC3)no2)cc1 | -24% | -4% |
| CC1=C(C(=O)OC(C)C)C(c2ccc3c(c2)OCO3)NC(=O)N1 (configuration not stated) | -5% | i |
| O=C(c1ccc(S(=O)(=O)N2CCC(c3nc4ccccc4[nH]3)CC2)cc1)N1CCOCC1 | -5% | -13% |
| Nc1nc(SCc2c(Cl)cccc2Cl)n[nH]1 | -11% | -24% |
| C/C(=N\NC(=O)c1c(Cl)cnn1C)c1ccc(NC(=O)c2ccncc2)cc1 | -7% | -23% |
| Cc1nc(=O)c(-c2ccccc2)c(C)n1-c1ccc(S(N)(=O)=O)cc1 | -1% | -14% |
| S=C(Nc1cccc2ccccc12)N1CCN(c2ncccn2)CC1 | -18% | . |
| CCCN1C(=O)C(O)(C2COC(C)(C)CC2=O)c2ccccc21 (configuration not stated) | 3% | -2% |
| CN(C)CCNC(=O)c1cccn(Cc2cccc(C(F)(F)F)c2)c1=O | -3% | 11% |
| CCN(c1cc(C)cc(C)c1)S(=O)(=O)c1nnc(NC(=O)C(C)C)s1 | -21% | -5% |
| Cc1ccccc1Cc1c(C)nc2nc(SCC(=O)NCCc3ccc(Cl)cc3)nn2c1C | -13% | -4% |
| Cc1cc(C(F)(F)F)nn1CC(=O)Nc1ccc(Br)c2cccnc12 | -13% | -17% |
| CCCCNC(=O)C1(C)CCCCN1C(=O)c1c(F)ccc(C)c1F (configuration not stated) | 3% | -4% |
| COc1ccc(-c2csc(NC(=O)CS(=O)(=O)c3ccccc3)n2)cc1 | -16% | -8% |
| CCCCNC(=O)CCNC(=O)c1ccc(C(C)(C)C)cc1 | -7% | -16% |
| CCC(=O)c1ccc(OCc2ccc(C#N)cc2)cc1 | 2% | -3% |
| Cc1cc2c(cc1C)N[C@]1(C[C@H]3CCC(=O)N4CC[C@@H](C1)[C@@H]34)C(=Nc1ccccc1C)N2 | 1% | -15% |
| COc1ccc(CC(=O)OCC(=O)N2CCCC(C)C2)cc1 (configuration not stated) | 6% | -9% |
| Cc1cc2nsnc2c(S(=O)(=O)N2CCN(C)CC2)c1C | 1% | i |
| O=C(NC1CCCCC1)c1ccc2c(c1)S(=O)(=O)c1ccccc1C2=O | -13% | ? |
| O=C(Nc1ccccc1)OC1CCS(=O)(=O)C1 (configuration not stated) | 1% | -8% |
| COc1cc2oc(=O)cc(CN3CCN(c4ccc(Cl)c(Cl)c4)CC3)c2cc1Cl | -16% | i |
| CCCP(=O)(CCC)CCP(=O)(c1ccccc1)c1ccccc1 | 1% | -6% |
| CCOC(=O)C1=C(CSc2nncn2C)NC(=O)NC1c1cc(OCC)ccc1OCC (configuration not stated) | -5% | i |
| CN1C(C(=O)NCc2ccccc2)CC2Cn3c(nc4cc5ccccc5cc43)C21 (configuration not stated) | -23% | -13% |
| COc1cccc(NC(=O)Cn2c(=O)c3cccn3c3ccc(F)cc32)c1 | -3% | -2% |
| CNC(=S)NNC(=O)c1sccc1C | -11% | ? |
| CC(C)n1c(=O)nc(-c2ccccc2)c2cc3c(cc21)OCO3 | -16% | -7% |
| COc1ccccc1NS(=O)(=O)c1ccc(Cl)c(NC(=O)CN2C(=O)c3ccccc3C2=O)c1 | -20% | i |
| COc1cc(/C=C/C(=O)OCC(=O)NCc2ccccc2OC)ccc1O | -25% | ? |
| Cc1cc(N2CCN(C)CC2)nc2ccc(NC(=O)CCC3CCCC3)cc12 | -7% | i |
| COC(=O)c1ccncc1C(=O)Nc1ccc(OC)cc1 | -11% | -13% |
| COc1cc(CCC(=O)OCC(=O)Nc2c(C)cc(C)cc2C)cc(OC)c1OC | -11% | -15% |
| Cc1cn([C@H]2C[C@H](O)[C@@H](CNCc3cc(Cl)ccc3OCc3ccc(Cl)cc3)O2)c(=O)[nH]c1=O | -23% | -2% |
| O=S1(=O)CC(N2CCCCC2)CN1Cc1ccccc1 (configuration not stated) | -1% | i |
| CCN(CC)S(=O)(=O)c1ccc(Nc2nc3ccccc3n3nnnc23)cc1 | -17% | . |
| Cc1ccc(NC(=O)n2ncc3c(C)cccc32)cc1F | -6% | i |
| COc1cccc(CN2CCN(C(=O)c3cc(-c4ccccn4)nc4ccc(Cl)cc34)CC2)c1 | 6% | -5% |
| CCOc1ccc(NC(=O)CSc2nnc(Cc3csc(C)n3)o2)cc1 | -13% | i |
| Cc1c(N=C2NC(=O)/C(=C/c3ccc(O)cc3)S2)c(=O)n(-c2ccccc2)n1C | -7% | 0% |
| Cc1cccc(C(=O)OCC(=O)NNC(=O)c2cccs2)c1O | -8% | i |
| CCOc1ccc(NC(=O)C2CCN(C(=O)N3CCOc4ccccc43)CC2)cc1 | -10% | -13% |
| Clc1ccc(SCc2cn3cccnc3n2)cc1 | -1% | -15% |
| CCCn1c(=O)c2ccccc2n2c(SC(C)C(N)=O)nnc12 (configuration not stated) | -4% | -12% |
| Cc1cccc(NC(=O)Cn2c(=O)n(Cc3ccc4c(c3)OCO4)c(=O)c3oc4ccccc4c32)c1C | ? | ? |

One compound at a time, from the list above. Order of screens: Vaccinia Venus	Vaccinia mCherry
COc1cccc(NC(=O)Cn2c(=O)c3cccn3c3ccc(F)cc32)c1 in the list: -3%	-2%
O=C1c2ccccc2C(=O)N1OCc1cccc(Cl)c1 in the list: -25%	.

Next results
| SMILES | Vaccinia Venus | Vaccinia mCherry |
| --- | --- | --- |
| O=C(O)C1Cc2ccccc2CN1S(=O)(=O)c1ccc2ccccc2c1 (configuration not stated) | -2% | -18% |
| COc1ccc(-c2[nH]ncc2CNC(C)Cc2ccsc2)c(F)c1 (configuration not stated) | -8% | -4% |
| O=S(=O)(NCC1CCCO1)c1ccc(S(=O)(=O)N2CCc3ccccc3C2)cc1 (configuration not stated) | -9% | -12% |
| O=C(NCCCNC(=O)c1ccc(-c2cccc(Cl)c2)o1)c1cnccn1 | -18% | -17% |
| CN1CCN(C(=O)c2cnn(-c3cccc(Cl)c3)c2C2CCN(C(=O)OC(C)(C)C)CC2)CC1 | -2% | -6% |
| c1ccc(Nc2nc(-c3ccccc3)ns2)cc1 | -9% | -11% |
| CN(C(=O)COC(=O)c1cnc(Cl)c(Cl)c1)C1CCS(=O)(=O)C1 (configuration not stated) | -6% | ? |
| COC(=O)[C@@H](Cc1c[nH]c2ccccc12)NCc1cccc(B(O)O)c1 | -13% | -12% |
| O=S(=O)(Nc1ccc(S(=O)(=O)N2CCOCC2)cc1)c1ccccc1 | -10% | -15% |
| O=C(Nc1ccccc1)c1cc2ccc3ccccc3c2s1 | -12%[7.34 µM] | -22%[7.34 µM] |
| COc1ccc(-n2nnnc2C(c2cc3ccccc3o2)N2CCC(n3c(=O)[nH]c4ccccc43)CC2)cc1 (configuration not stated) | ? | ? |
| CCN(CC)c1ccc(NC(=O)CN2CCN(S(=O)(=O)c3cc(Cl)ccc3OC)CC2)cc1 | ? | ? |
| COc1ccc(OCC(=O)NC(=S)Nc2ccc(S(=O)(=O)Nc3cc(C)on3)cc2)cc1 | -2% | -10% |
| Cc1ccc([N+](=O)[O-])c2c1C(N1CCCCC1)C(C)(C)O2 (configuration not stated) | -10% | 0% |
| CC(C)CNc1ncnc2c1sc1nc(N3CCOCC3)c3c(c12)CC(C)(C)OC3 | 4% | . |
| CCOC(=O)c1sc(-c2ccccc2)cc1NC(=O)Nc1ccccc1 | ? | ? |
| Cc1noc(Cn2c(=O)c3cc4c(cc3n(CC(=O)Nc3ccc(C(C)C)cc3)c2=O)OCO4)n1 | -12% | -9% |
| Cc1cc(C)cc(OC(C)C(=O)Nc2ccccc2C(=O)NCc2cccnc2)c1 (configuration not stated) | -7% | -24% |
| Cc1ccc(NC(=O)c2ccccc2F)c(NC(=O)c2ccccc2F)c1 | 4% | -6% |
| Cc1ccc2cccc(NC(=O)COc3cc(C)c(Cl)c(C)c3)c2n1 | 11% | 3% |
| O=C(Nc1ccc2c(c1)OCO2)c1csc([C@H]2C[C@H](O)[C@@H](CO)O2)n1 | -5% | 38%[activator] |
| O=C(CN(Cc1ccccc1)S(=O)(=O)c1cccc(C(F)(F)F)c1)NC1CCCCC1 | -13% | -8% |
| CCOC(=O)C(C(=O)OCC)N(C#N)c1nc(N(C)C)nc(N(C)C)n1 | -28% | ? |
| CCn1c(CNc2ccc(Cl)cc2)nnc1SCc1ccccc1 | -12% | -25% |
| Oc1ccc(Br)cc1C=Nc1ccc2c3c(cccc13)CC2 | -14% | -26% |
| CCc1cc(C(=O)NCc2ccccc2)no1 | 1% | -14% |
| Cc1ccc(-c2nc3ccccc3c(=O)n2-c2c(C)n(C)n(-c3ccccc3)c2=O)cc1 | -2% | -13% |
| COCC1CCN(C(=O)C2CCC(=O)N(Cc3cccc(F)c3)C2)CC1 (configuration not stated) | -15% | 0% |
| COc1ccccc1OCc1cc(C(=O)NCCN2CCCC(O)C2)no1 (configuration not stated) | -10% | i |
| COc1ccccc1OCCC(=O)Nc1cccc(S(=O)(=O)N2CCCCC2)c1 | -14% | -5% |
| COc1ccccc1-c1nc(SCC(=O)Nc2ccccc2F)n[nH]1 | -21% | ? |
| Cc1ccc(N(C(=O)C2CCCC2)C2C=CS(=O)(=O)C2)cc1 (configuration not stated) | ? | . |
| Cc1ccc(-c2nc3n(n2)C(c2ccccc2C)C=C(c2ccc(Cl)cc2)N3)cc1 (configuration not stated) | -5% | -20% |
| CC(C)(C)c1ccc(Cn2nnc3c(=O)[nH]c(C4CCCN(C(=O)c5ccco5)C4)nc32)cc1 (configuration not stated) | -16% | -22% |
| COc1ccccc1NC(=O)CN1C(=O)C(C)SC(C)C1=O (configuration not stated) | -14% | -15% |
| Cc1ccc2nc(SCC(=O)NCc3ccccc3Cl)nc(=O)n2c1 | 1% | i |
| Cc1ccc(CN2C(=O)CSc3ccc(C(=O)NCCN4CCOCC4)cc32)cc1 | ? | . |
| CC(NC(=O)C1CCCCC1)C(c1cccs1)N1CCN(C)CC1 (configuration not stated) | -9% | i |
| Cc1occc1C(=O)N1CCN(c2ccccc2)CC1 | -5% | -2% |
| O=C1C=C(NCCc2cc(Br)c(O)c(Br)c2)C(=O)c2ncccc21 | ? | ? |
